Screens as filed in PubChem BioAssay.
NS1 inh: qHTS Assay for Inhibitors of Influenza NS1 Protein Function; S. cerevisiae slowed by influenza A NS1, growth recovery by OD600; Potency, µM (highest dose often 46.1 µM), for inactives: at the highest dose activity, positive = more growth; hit rate 0.4% among 270,000; AID 2326, 2010; also: actives are rising curves; nearly all actives have a fitted effect of over 50% in size
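Growth recovery, yeast-based: influenza A NS1 expressed in S. cerevisiae causes slow growth, and suppressors are detected by OD600. The parent strain without NS1 is used as positive control.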
SARS PLpro yeast: qHTS of Yeast-based Assay for SARS-CoV PLP; hit rate 0.19% among 330,000; S. cerevisiae expressing SARS-CoV PLpro, growth rescue; control for the full effect not named in the record; Potency, µM (titrated, usually from 32.9 µM), inactives show top-dose activity, positive = growth rescue; also: 0% is about no effect; nearly all actives have a fitted effect of over 55% in size; growth read by luminescence after 48 h
Cruzain inh noDet: qHTS Assay for Promiscuous and Specific Inhibitors of Cruzain (without detergent) | purified cruzain, Z-FR-AMC fluorescence, no detergent | Potency, µM, inactives show max response, negative = inhibition, hits mostly inhibitors | Cruzipain (Trypanosoma cruzi), P25779 | AID 1476, 2009 | hit rate 2.3% among 200,000; active = well fitted curve in the direction sought with a large enough effect; inconclusive = small, poorly fitted or top-dose-only effect, or another doubt; inactive = no such curve, though single readings can be large; an effect the other way counts as inactive or inconclusive;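 also: plate controls were enzyme without inhibitor for no effect and buffer without enzyme for full effect; nearly all actives have a fitted effect of over 40% in size; top concentration of the series not given in the record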
Target sequence (P25779 123-467 limits assumed): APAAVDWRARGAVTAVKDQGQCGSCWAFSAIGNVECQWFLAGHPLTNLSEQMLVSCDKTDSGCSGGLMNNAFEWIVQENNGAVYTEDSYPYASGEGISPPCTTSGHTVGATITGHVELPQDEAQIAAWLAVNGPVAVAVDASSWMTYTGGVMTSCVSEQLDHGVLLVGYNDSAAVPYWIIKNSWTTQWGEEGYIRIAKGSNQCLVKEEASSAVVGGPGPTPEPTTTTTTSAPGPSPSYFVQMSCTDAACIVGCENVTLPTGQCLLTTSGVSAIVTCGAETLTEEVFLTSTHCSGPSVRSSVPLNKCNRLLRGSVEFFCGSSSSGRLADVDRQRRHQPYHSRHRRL
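Detergent-free condition (0.00005% Triton X-100) in acetate buffer pH 5.5 with DTT. 1.5 nM enzyme and compound were pre-mixed 15 min, then 2 uM Z-FR-AMC substrate added; reaction progress from fluorescence change between first and third reads (60 s).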
RE007 growth inh: qHTS Assay for Inhibitors of the HIV-1 protein Vpr; S. pombe RE007 Vpr strain, BacTiter-Glo ATP luminescence, 24 h; control for the full effect not named in the record; Potency, µM (highest dose often 92.2 µM), without a hit: at the top dose activity change, negative = less growth; hit rate 0.21% among 360,000; AID 651644, 2012; active = well fitted falling curve with a large enough effect; inconclusive = small, poorly fitted or top-dose-only effect; inactive = no such curve, though single readings can be large or run the other way;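 also: % is scaled to controls: 0 for no effect and ±100 for the full control effect; nearly all actives have a fitted effect of over 50% in size; the assay follows cell death caused by Vpr and the record does not say whether a fall means rescue or toxicity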
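Fission yeast strain RE007, carrying one chromosomally integrated HIV-1 vpr copy, was seeded at OD 0.01 in PMG+AL medium with 23 nL pinned compound. After 24 h at 30 °C and 99% humidity, viability was read by BacTiter-Glo luminescence.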
2A StopGo: High Throughput Screening for Foot and Mouth Disease Virus Antivirals; hit rate 1.2% among 410,000; human cells with a luciferase reporter of 2A StopGo recoding; control for the full effect not named in the record; Potency, µM (titrated, usually from 57.9 µM), for the others: top-dose signal change, negative = less light; active = well fitted falling curve with a large enough effect; inconclusive = small, poorly fitted or top-dose-only effect; inactive = no such curve, though single readings can be large or run the other way; tested in HEK293T cells; also: % is scaled to controls: 0 for no effect and ±100 for the full control effect; nearly all actives have a fitted effect of over 45% in size; luciferase light after 4 h
Marburg entry inh: qHTS for inhibitors of binding or entry into cells for Marburg Virus. Marburg virus pseudotyped entry inhibition, cell reporter; control for the full effect not named in the record; about a third of the inactives were read at about 46 µM. Potency, µM (highest dose often 37.8 µM), for inactives: at the highest dose activity change, negative = inhibition, hits mostly inhibitors. hit rate 1.8% among 300,000; active = well fitted inhibition curve with a large enough effect; inconclusive = small, poorly fitted or top-dose-only effect, or effect the other way; inactive = flat fitted curve, though single readings scatter; tested in HEK293 cells; about a fifth of its hits are not listed in these tables; also: % is scaled to controls: 0 for no effect and ±100 for the full control effect; luciferase read-out
LASV entry inh: qHTS for Inhibitors of binding or entry into cells for Lassa Virus; AID 540256, 2011; hit rate 1.2% among 300,000; Lassa virus pseudotype entry inhibition, cell reporter; control for the full effect not named in the record; Potency, µM (top dose mostly 37.9 µM), for the others: at the top dose activity change, negative = inhibition, usual class: inhibitors; active means well fitted inhibition curve with a large enough effect; inconclusive means small, poorly fitted or top-dose-only effect, or effect the other way; inactive means flat fitted curve, though single readings scatter; tested in HEK293 cells; also: % is scaled to controls: 0 for no effect and ±100 for the full control effect; nearly all actives have a fitted effect of over 50% in size; luciferase read-out
Cruzain inh Det: qHTS Assay for Promiscuous and Specific Inhibitors of Cruzain (with detergent) | purified cruzain, Z-FR-AMC fluorescence, 0.01% Triton | Potency, µM, for the others: max response, negative = inhibition, actives largely listed as inhibitors | hit rate 0.43% among 200,000; active = well fitted curve in the direction sought with a large enough effect; inconclusive = small, poorly fitted or top-dose-only effect, or another doubt; inactive = no such curve, though single readings can be large; an effect the other way counts as inactive or inconclusive;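 also: plate controls were neutral wells for no effect and buffer without enzyme for full effect; nearly all actives have a fitted effect of over 40% in size; top concentration of the series not given in the record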
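Enzyme 1.5 nM, Z-FR-AMC 2 uM, NaOAc 100 mM pH 5.5, DTT 5 mM, Triton X-100 0.01%; 15 min RT compound preincubation; kinetic ex360/em450, 60 s delta.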
Starred values were filed as active, the others as inactive; ? = inconclusive; nt = not tested or not shown; [ ] = dose if it differs, or a comment. Unless noted, calls follow the shape of the dose curve; as a rule, active means well fitted rising curve with a large enough effect; inconclusive means small, poorly fitted or top-dose-only effect; inactive means no such curve, though single readings can be large or run the other way. Potency is read from the fitted curve at half-maximal effect.

SMILES	NS1 inh	SARS PLpro yeast	Cruzain inh noDet	RE007 growth inh	2A StopGo	Marburg entry inh	LASV entry inh	Cruzain inh Det
O=C(OCC(=O)N1CCCCCC1)c1ccc([N+](=O)[O-])cc1Cl	-1%	4%	nt	9%	6%	nt	nt	nt
O=C1CCCC2=C1C(O)(C(F)(F)F)C(=O)N2Cc1ccccc1 (stereo not given)	-2%	4%	-3%	15%	9%	0%	4%	-1.0%
CCN(CC)c1cc2nc(C)n(Cc3ccccc3)c(=O)c2cc1NC(=O)C1CC1	2%	9%	28%	14%	0%	?	3%	-5.0%
CN(C(=O)c1cccc(C#N)c1)c1nnc(-c2cnccn2)s1	-2%	0%	-2%	-15%	19%	0%	10%	-3.0%
Cc1ccc(C)c(OCC(O)CN2CCC(CN3C(=O)c4cccc5cccc(c45)C3=O)CC2)c1 (stereo not given)	11%	-3%	0%	?	?	?	?	-7.2%
Cc1n[nH]c(C)c1S(=O)(=O)N1CCN(C2CCCCC2)CC1	3%	2%	4%	1%	0%	-23%	5%	4.3%
CC1=Nc2ccccc2/C1=C/c1c(C)[nH]c2ccccc12	nt	nt	nt	-5%	-21%	-14%[46.1 µM]	-13%[46.1 µM]	nt
CCOc1ccc(CN2CCNC(=O)C2CC(=O)NCc2csc(C(C)C)n2)cc1 (stereo not given)	18%	-4%	nt	2%	-6%	nt	nt	nt
CSc1ccccc1OCc1cc(C(=O)NCCN2CCCc3ccccc32)no1	27%	-5%	nt	-3%	-19%	?	?	nt
CN1C(=O)C(=O)/C(=C(/O)c2ccc(Br)cc2)C1c1cccc([N+](=O)[O-])c1 (stereo not given)	16%	-10%	nt	7%	-14%	nt	nt	nt
O=[N+]([O-])c1cccc(C2=NCCS2)c1	-3%	-9%	-9%	-7%	-21%	12%	5%	-2.0%
Cc1nc2nc3c(cn2n1)C(=O)CC(c1ccccc1)C3 (stereo not given)	-34%	7%	-5%	4%	-1%	?	27%	1.3%
CN(C)C(=O)N1CCNCC1	6%	0%	nt	9%	7%	nt	nt	nt
CCOC1(OCC)C(c2ccc(Cl)cc2)C(C#N)(C#N)C1(OCC)OCC (stereo not given)	1%	1%	-24%	-5%	?	?	21µM*	-0.8%
CC(C)CCNC(=O)c1cc(C(=O)c2cc(Br)ccc2O)cn(CCC(C)C)c1=O	nt	-6%	nt	1%	?	-19%[46.1 µM]	2%	nt
Cc1ccc(Oc2nc3ccccn3c(=O)c2/C=C(\C#N)C(=O)Nc2c(C)n(C)n(-c3ccccc3)c2=O)c(C)c1	-5%	-11%	?	-1%	-24%	?	?	-4.1%
COCCn1cnc2c(c1=O)c1nc3ccccc3nc1n2/N=C/c1ccc(OC)c(OC)c1	6%	1%	nt	11%	-3%	?	?	nt
CCc1ccc(CNC(=O)CCC(=O)n2ncc3cc(C)ccc32)cc1	-4%	-2%	nt	3%	-24%	nt	nt	nt
CC(=O)c1sc(-c2ccccc2)cc1NS(=O)(=O)c1ccccc1	1%	0%	nt	-8%	-6%	13%[46.1 µM]	6%	nt
CC(=O)Nc1ccc(Oc2cnccn2)cc1	9%	16%	-3%	16%	-18%	21%	-14%	-0.4%
COc1ccc2c(c1)[nH]c1c(=O)n(/N=C/c3ccc(OC)c(CN4CCCCC4)c3)cnc12	1%	0%	nt	-5%	-13%	nt	nt	nt
Cc1ccc(CC(=O)NCc2ccc3c(c2)OCO3)cc1	-5%	nt	-2%	-1%	24%	7%	1%	-1.8%
O=C1CNC(=S)N1CCCc1ccccc1	-6%	-1%	nt	-4%	6%	nt	nt	nt
CCOc1ccccc1N1C(=O)CC(N(O)c2ccccc2)C1=O (stereo not given)	1%	9%	-5%	-2%	-10%	nt	nt	-1.2%
C=CCSc1nnc2c(n1)OC(c1c(C)[nH]n(-c3ccccc3)c1=O)Nc1ccccc1-2 (stereo not given)	-9%	?	?	3%	?	4%	17%	-5.5%
CCCCCC1CCC(C(=O)NCCN2CCOCC2)CC1 (stereo not given)	-7%	-1%	nt	-4%	-15%	?	-1%	nt
COc1ccc(-c2ccnc3nc(N4CCN(c5ccccc5)CC4)nn23)cc1	8%	3%	72%	19%	6%	?	?	-7.4%
Nc1c2c(=O)oc(-c3ccccc3)cc2nn1-c1ccccc1	-29%	-7%	?	0%	9%	?	-10%	-3.9%
Cc1ccc(CN2CCN(C3CCCC3)C(CCO)C2)s1 (stereo not given)	6%	1%	nt	-8%	-2%	?	11%[46.1 µM]	nt
COc1cc(C2NC(=S)NC(C)=C2C(=O)c2ccccc2)ccc1O (stereo not given)	25%	0%	-20%	nt	-22%	?	0%	-6.5%
CCOc1ccc(N(C)S(=O)(=O)c2c(C(=O)N3CCC(C)CC3)c(C)n(C)c2C)cc1	nt	nt	?	nt	12%	nt	?	-0.2%
O=c1ncn(-c2cccc([N+](=O)[O-])c2)c2ccccc12	nt	nt	nt	7%	-16%	5%[46.1 µM]	nt	nt
O=c1c2ccccc2nc(Cc2ccccc2)n1-c1cccc(O)c1	-1%	0%	nt	12%	-17%	8%	-2%	nt
CCCCCn1nc(C(=O)N(CC(C)C)c2c(N)n(CCCC)c(=O)[nH]c2=O)c2ccccc2c1=O	nt	nt	nt	-11%	-4%	-4%	-4%[46.1 µM]	nt
COc1ccc(C)cc1NC(=O)CCS(=O)(=O)c1ccc2c(c1)CC(=O)N2C	nt	nt	4%	nt	22%	nt	27%[46.1 µM]	0.2%
Cc1cc(OCc2cc(C(=O)N(C)CCCN3CCOCC3)no2)cc(C)c1Cl	4%	?	nt	-3%	-6%	?	-7%[46.1 µM]	nt
CCCCn1c(N)c(C(=O)NCc2cccs2)c2nc3ccccc3nc21	17%	2%	11%	15%	4%	?	7%	-8.5%
Clc1ccc2c(c1)C(c1ccccc1Cl)=NCc1nnc(N3CCN(CCOc4ccccc4)CC3)n1-2	-56%	-4%	?	8%	0%	?	?	-5.3%
O=c1[nH]c(=S)n(-c2ccccc2)c(O)c1/C=N/N1CCOCC1	11%	1%	7%	-2%	-8%	-23%	0%	-8.3%
Cc1ccc(Nc2nnns2)cc1	-33%	?	-21%	-9%	2%	16%	-24%	-25%

4 structures already listed, sorted by molecular weight, rising:
SMILES	NS1 inh	SARS PLpro yeast	Cruzain inh noDet	RE007 growth inh	2A StopGo	Marburg entry inh	LASV entry inh	Cruzain inh Det
O=[N+]([O-])c1cccc(C2=NCCS2)c1	-3%	-9%	-9%	-7%	-21%	12%	5%	-2.0%
Cc1ccc(CN2CCN(C3CCCC3)C(CCO)C2)s1 (stereo not given)	6%	1%	nt	-8%	-2%	?	11%[46.1 µM]	nt
COc1cc(C2NC(=S)NC(C)=C2C(=O)c2ccccc2)ccc1O (stereo not given)	25%	0%	-20%	nt	-22%	?	0%	-6.5%
Cc1ccc(Oc2nc3ccccn3c(=O)c2/C=C(\C#N)C(=O)Nc2c(C)n(C)n(-c3ccccc3)c2=O)c(C)c1	-5%	-11%	?	-1%	-24%	?	?	-4.1%

Next part:
SMILES	NS1 inh	SARS PLpro yeast	Cruzain inh noDet	RE007 growth inh	2A StopGo	Marburg entry inh	LASV entry inh	Cruzain inh Det
O=C(O)c1ccc(N/N=C/c2ccc(OC(=O)c3cccc(Cl)c3)cc2)cc1	-2%	-1%	nt	8%	20µM*	nt	nt	nt
COc1ccc(NC(=O)C23CCC(C2)C(C)(C)C3=O)cc1 (stereo not given)	?	-2%	-5%	-13%	19%	9%	-10%	0.9%
O=C(Nc1ccccc1)C1=C[C@H](c2csc3ccccc23)C[C@H](OCc2ccc(CO)cc2)O1	14%	-1%	nt	4%	-19%	nt	nt	nt
COc1ccc(C(=O)Nc2ccc(S(=O)(=O)N3CCN(C)CC3)cc2)cc1	nt	nt	nt	0%	-3%	3%[46.1 µM]	8%[46.1 µM]	nt
CC(C)c1ccc(NC(=O)CN2CCN(c3ccccn3)CC2)cc1	-5%	-3%	nt	13%	-5%	nt	nt	nt
Cc1ccc(Cn2ccc(NC(=O)CCSc3nc(-c4ccco4)cc(C(F)(F)F)n3)n2)cc1	14%	-3%	-17%	2%	?	?	?	-5.0%
Cc1ccc(NC(=O)c2ccc(Cl)c(S(=O)(=O)N3CCCC3)c2)nc1	nt	-3%	nt	2%	?	-18%	-12%[46.1 µM]	nt
CC(=O)N/C(=C/c1ccc2c(c1)OCO2)C(=O)NCC(=O)O	4%	-15%	7%	16%	-17%	24%	?	-5.1%
COc1cccc2sc(N)nc12	nt	-17%	2%	-5%	-5%	nt	nt	0.9%
COCc1cc(C)nc(Oc2ccccc2)c1C#N	-4%	-1%	nt	1%	4%	-1%[46.1 µM]	nt	nt
CCCCNC(=O)c1cn(CC)c2ccc(S(=O)(=O)N3CCCCCC3)cc2c1=O	16%	1%	nt	-12%	-9%	nt	nt	nt
CCOCC(=O)N(CC)Cc1ccccc1	2%	-1%	nt	6%	-5%	-2%[46.1 µM]	11%[46.1 µM]	nt
CCCC12CN3CCN(CC(C3)/C1=N\NC(=O)Nc1ccccc1)C2	0%	3%	1%	6%	-1%	-2%	?	-1.8%
Cn1c(=O)n(C)c2cc(N3CCOCC3)c(NS(=O)(=O)c3ccc(C(C)(C)C)cc3)cc21	nt	nt	?	nt	-12%	?	-7%[46.1 µM]	-5.9%
FC(F)(F)c1cc(-c2ccco2)nc(-n2nc(C(F)(F)F)cc2C2CC2)n1	-2%	-4%	-4%	-2%	?	2%	?	-13%
CCN1/C(=C\C(=S)Nc2ccccc2)Sc2ccccc21	3%	-2%	nt	2%	-5%	?	?	nt
CCN(CC1CCCO1)C(=O)c1cc(COc2ccc(F)cc2F)on1 (stereo not given)	-2%	-1%	nt	-20%	13%	14%	-1%	nt
O=C(COC(=O)c1ccc(Br)o1)NCc1ccc2c(c1)OCO2	nt	-9%	nt	2%	-17%	-15%	26%	nt
